# RN4220 kill = kills Staphylococcus aureus RN4220; S. aureus RN4220 growth, OD600, 16 h; inhibition, % (concentration not given with the values); 330,000 compounds, 0.33% hits; AID 1259311;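 active = z-score of -3 or lower and OD600 up to 0.18 on both plates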;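 note: plate controls were untreated cells for no effect and reference antibiotic for full effect; stock transfer was 100 nL into about 80 µL; one replicate is shown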
# ugtP null kill = kills S. aureus RN4220 lacking UgtP | S. aureus RN4220 ugtP deletion, OD600 growth, 16 h; some inactives read as strong as hits | growth inhibition, % (test concentration not listed) | 330,000 compounds, 0.54% hits | AID 1259309;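 active = z-score under -3 and OD600 up to 0.15 on both plates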;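 note: plate controls were untreated wells for no effect and antibiotic for full effect; wells of about 80 µL received 100 nL stock; the first replicate is given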
# Mtb hypoxia inh = inhibitors of hypoxia-regulated fluorescent reporter in Mycobacterium tuberculosis; M. tuberculosis hypoxia-regulated fluorescent reporter, fluorescence; fluorescence inhibition, % (concentration not given with the values); 300,000 compounds, 0.1% hits; AID 1159583;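 active = 35 to 45% if threefold the growth effect, above 45% if 1.5-fold the growth effect; inactive = the rest, general growth blockers included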;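 note: wells of about 50 µL received 100 nL stock; 0% = vehicle wells and 100% = reference inhibitor wells; whole bacteria with a GFP reporter of the hypoxia response; strong numbers were not always called active; many hits fall short of the cut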
# PrP UTR inh = suppresses PrP 5' UTR mRNA reporter expression. cell-based PrP 5' UTR mRNA reporter, plate reader. 340,000 compounds, 0.35% hits. inhibition, % (test concentration not listed);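 active = every replicate at 50% or more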;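 note: 0 = median of the neutral control wells; tested in H4 reporter cells; numbers are from one replicate; inactives centre near -14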
# Bead autofluor = flagged as autofluorescent in microsphere protease counterscreen; compound autofluorescence counterscreen, microsphere flow cytometry; stronger effect = higher value; AID 624483; fluorescence intensity (concentration not given with the values); 360,000 compounds, 3.1% hits;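 active = at least 3 SD above the mean of all compounds, about 16000 in these data; inconclusive = too few beads counted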;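 note: 100 nL of 1 mM stock went into each well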
# BJeLR viability = kills HRASV12-expressing BJeLR cells. BJeLR (HRASV12) viability, CellTiter-Glo ATP luminescence, 48 h; reference of the scale not given here. inhibition, % (no concentration beside the values). 300,000 compounds, 0.17% hits. AID 1554;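 active = replicate mean above 50%; inconclusive = above 50% but judged a plate artefact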;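 note: 50 nL library stock added to about 25 µL; numbers are from one replicate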
# Mtb hypoxia inh growth = further read-out of Mtb hypoxia inh, marked with its call; growth inhibition, %; measured here: M. tuberculosis growth (absorbance);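 0% = vehicle and 100% = reference antibiotic; read after six days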
# Starred values were filed as active, the others as inactive; ? = inconclusive; . = not tested or not shown; & = joins results of further samples.
SMILES,RN4220 kill,ugtP null kill,Mtb hypoxia inh,Mtb hypoxia inh growth,PrP UTR inh,Bead autofluor,BJeLR viability
C[C@@H]1CC[C@@]2(O[C@H](CCO)C[C@H](O)[C@H]2O)O1,.,.,.,.,-8,2850,-3
COc1ccccc1-c1nnc(NC(=O)C(C)Sc2nncn2C)s1 (centres undefined),4.1,8,17,6,-8,2464,3
COc1ccc(C=NNS(=O)(=O)c2ccccc2)cc1OC,1.7,-4,11,10,.,.,.
CN(CC(=O)NCCC1=CCCCC1)S(=O)(=O)c1ccc2c(c1)c(=O)n(C)c(=O)n2C,2.1,19,10,8,-13,5131,.
Cc1cc(NS(=O)(=O)c2ccc(NC(=O)CNS(=O)(=O)c3ccccc3)cc2)nc(C)n1,1.6,-2,7,8,9,2895,.
CC(Oc1ccccc1)C(=O)Nc1oc(-c2ccco2)c(-c2ccco2)c1C#N (centres undefined),-0.5,-2,1,9,-10,2634,7
Clc1ccc(Cn2ncc3c(NCc4cccnc4)ncnc32)cc1,-20,-10,10,12,-10,?,15
CCC(=O)Nc1cccc(NC(=O)CSc2nnc(C3CC3)n2C)c1,-2.8,3,.,.,1,4435,-3
COc1ccc(NS(=O)(=O)c2cc(C(=O)NNC(=O)c3ccncc3)ccc2OC)c(OC)c1,-0.6,-2,-3,-1,.,3682,.
COc1ccc(C(=O)COC(=O)CCN2C(=O)C3C4C=CC(C5CC45)C3C2=O)cc1 (centres undefined),1.5,4,0,-8,-10,5779,3
NC(=O)C1CCN(C(=O)c2ccc(C(F)(F)F)cc2)CC1,4.6,8,.,.,4,2833,-3
CCOc1ccc(NC(=O)N2CC(C)OC(C)C2)cc1 (centres undefined),2.6,16,0,-7,-24,3668,-1
O=C(CCN1CCN(C/C=C/c2ccccc2)CC1)Nc1ccccc1,1.5,0,8,2,-13,4218,-3
COC(=O)c1ccc(NC(=O)CN2CCN(S(=O)(=O)c3ccc(Br)cc3)CC2)cc1,1.5,0,-4,6,-3,5901,6
Cc1ccc(NCc2nnc(SCC(N)=O)n2CC2CCCO2)c(C)c1 (centres undefined),9.3,9,4,11,-4,2991,-1
CC(=O)Nc1ccc(NC(=O)CC(C)=NNC(=O)COc2cc(C)c(Br)cc2Br)cc1,-0.8,1,9,13,.,.,.
c1ccc(C(CN2CCOCC2)c2ccccc2)cc1,5.0,-2,13,1,-14,10697,5
Cc1nnc(NC(=O)c2ccc3c(c2)OCO3)s1,2.4,-5,-5,7,-49,3751,-4
O=C(NCc1ccccc1)c1nccnc1CO,3.3,17,10,16,-2,3584,0
Cc1cc(C)n2nc(SCC(=O)Nc3c(C)n(C)n(-c4ccccc4)c3=O)nc2n1,2.9,2,.,.,-9,2701,2
CCOC(=O)Cc1csc(NC(=O)COc2ccc3c(C)cc(=O)oc3c2)n1,0.6,-12,-15,-1,5,4045,5
O=C(CCn1c(=O)c2sccc2n(CC(=O)OCc2ccccc2)c1=O)NCc1ccco1,1.3,6,0,1,3,11636,4
O=C(O)C1CCN(C(=O)c2scc3c2OCCO3)CC1,2.6,-1,4,11,-3,?,8
COc1ccc(/C=C2/SC(=S)N(c3ccc(S(=O)(=O)Nc4nccs4)cc3)C2=O)cc1,-6.6,-13,7,12,-9,3970,-6
CC1(C)Cc2ccccc2C2=C(C(=O)N3CCCCCC3)C(=O)C(=O)N21,6.9,7,8,1,-22,5013,.
SMILES,RN4220 kill,ugtP null kill,Mtb hypoxia inh,Mtb hypoxia inh growth,PrP UTR inh,Bead autofluor,BJeLR viability
Clc1ccc(/C=C/c2nc(Cl)c(-c3ccc(Cl)cc3)c(Cl)n2)cc1,.,.,.,.,-13,3551,-8
C#CCOc1ccc(C=NNC(=O)c2cccnc2)cc1OCC,2.4,3,9,8,.,.,.
CN(C)S(=O)(=O)c1cccc(C(=O)OCC(=O)Nc2sccc2C#N)c1,8.1,0,-10,-6,-17,3568,10
Cc1ccc(C(=O)NCCc2ccc(F)cc2)s1,2.6,6,20,22,-51,3464,10
O=C1S/C(=C\C=C\c2ccco2)C(=O)N1c1ccccc1,.,.,.,.,-93,2449,7
CCN(CC)S(=O)(=O)c1cccc(C(=O)Nc2cc(C)on2)c1,5.0,19,-3,18,-33,4366,-2
c1nc(N2CCC3(CC2)OCCO3)c2c3c(sc2n1)CCCC3,7.7,-5,.,.,-9,4343,3
CCOc1ccccc1C1NC(=O)NC(C)=C1C(=O)OCc1ccccc1 (centres undefined),2.7,-8,-12,-10,3,3793,6
CCN(C[C@H]1N[C@@](C)(C(=O)OC)[C@H]2C(=O)N(Cc3ccccc3)C(=O)[C@@H]12)C(=O)NC(C)C,2.3,1,-12,8,33,3739,.
CC(Oc1ccc(C#N)cc1)C(=O)c1ccc(F)c(F)c1 (centres undefined),0.8,6,24,19,-8,4482,.
COc1ccc(NC(=S)N2CCN(S(=O)(=O)c3ccccc3)CC2)cc1OC,0.2,1,-4,6,-3,6287,6
O=C(CC(C(=O)N1CCc2ccccc21)n1ccnc1)NCc1ccccc1 (centres undefined),-4.7,-9,-13,5,-3,18019*,9
CC[C@]12c3[nH]c4ccccc4c3CCN1C(=O)C(CC(=O)NCc1ccco1)C[C@@H]2C(=O)N1CCN(C(=O)c2ccco2)CC1 (some centres undefined),0.4,8,3,0,-21,3964,.
CC1SC(=NC(=O)c2ccncc2)NC1=O (centres undefined),0.7,-8,-3,1,-19,3825,6
CCOc1ccccc1NC(=O)CSc1nnc(-c2ccccn2)n1Cc1ccco1,2.5,3,2,10,-24,5745,5
COc1ccccc1NS(=O)(=O)c1cccc(C(=O)NN=C2CC(=O)CC(C)(C)C2)c1,-2.6,0,0,9,.,.,.
COc1ccc(-c2cc(C(=O)NC3CC3)c3ccccc3n2)cc1,5.0,2,7,-6,-13,5383,1
CS(=O)(=O)N(Cc1ccccc1)c1ccc(C(=O)NC2CCCCC2O)cc1 (centres undefined),2.7,-6,5,5,-3,?,0
CCC(C)C(N)c1cn(C(Cc2ccc(O)cc2)C(=O)N2CCNCC2)nn1 (centres undefined),6.6,7,8,17,.,.,.
Cc1ccccc1-n1c(C)nnc1SCC(=O)N1CC(=O)Nc2ccccc21,0.3,-1,18,10,-14,8068,2
Cc1cccc(NC(=S)NC2CC3CCC(C2)N3Cc2ccco2)c1 (centres undefined),2.1,2,4,-1,-20,8974,5
COc1ccc(-n2c(SCC(=O)NCC3CCCO3)nc3c([nH]c4ccccc43)c2=O)cc1OC (centres undefined),6.8,9,7,10,-25,4688,10
CC(=O)OCC1OC(CC=NOC2OC(COC(C)=O)C(OC(C)=O)C(OC(C)=O)C2OC(C)=O)C=CC1OC(C)=O (centres undefined),6.4,2,14,12,.,.,.
COc1cccc(N(CC(=O)NCc2ccccc2)C(=O)CCC(=O)Nc2nccs2)c1,-0.6,13,3,-1,-14,3722,1
C[C@H](CO)N1C[C@H](C)[C@@H](CN(C)S(=O)(=O)c2ccc(F)cc2)Oc2c(NS(=O)(=O)c3ccc(F)cc3)cccc2C1=O,7.7,12,1,-1,-1,3840,.
SMILES,RN4220 kill,ugtP null kill,Mtb hypoxia inh,Mtb hypoxia inh growth,PrP UTR inh,Bead autofluor,BJeLR viability
O=C(/C=C/c1ccc(Cl)cc1Cl)N1CCN(c2ccccc2[N+](=O)[O-])CC1,8.1,-9,8,4,-15,9412,-1
CCOC(=O)c1c(C)[nH]c(C)c1C(=O)COC(=O)c1cccnc1OCC,2.7,-1,-7,0,1,3811,.
COc1cc(CNC(=O)c2cnc(C)cn2)cc(OC)c1,3.4,5,12,7,-5,.,-11
COc1ccccc1N1CCN(Cc2nc(N)nc(Nc3ccc(C)c(Cl)c3)n2)CC1,-1.6,-20,-13,-2,-1,7231,3
CCCc1cc(=O)[nH]c(SCC(=O)Nc2sc(C(N)=O)c(C)c2C(=O)OCCOC)n1,1.5,-2,0,6,-4,4448,.
CC(Sc1nc2ccccc2s1)C(=O)N1CCOCC1 (centres undefined),2.5,3,11,12,-25,3911,13
Cc1ccc(C(C(=O)NC2CCCC2)N(Cc2ccc3c(c2)OCO3)C(=O)c2snc(C(N)=O)c2N)cc1 (centres undefined),8.6,1,2,2,-22,4301,1
COc1ccc(S(=O)(=O)Nc2ccc(NC(C)=O)cc2)cc1Br,6.3,14,7,9,-17,4055,.
COC(=O)CNC(=O)/C=C/c1ccc(OC)cc1,-0.4,7,7,4,-25,19785*,-3
Cc1ccc(N(CC(=O)NCc2ccccc2)S(=O)(=O)c2c(C)noc2C)cc1,-2.7,-4,-4,-3,-23,5204,1
CC(=O)Nc1ccc(NC(=O)c2ccc(N(Cc3ccccc3C)S(C)(=O)=O)cc2)cc1,3.3,5,9,4,1,6170,6
CC(C)c1ccccc1NC(=O)c1cccnc1,1.2,1,.,.,-26,4389,-1
CCn1c(O)c(C=NCc2ccccc2)sc1=S,4.5,-9,6,14,-28,5661,-2
O=C(Nc1ccc(O)c2c(=O)cc(-c3ccccc3Cl)oc12)c1ccc(F)cc1,8.6,1,12,4,-21,3873,-4
Cc1cccc(OCCn2c(=O)sc3ccccc32)c1,8.4,-27,.,.,-84,2137,.
CC(C)(O)C(O)COc1c2ccoc2cc2oc(=O)ccc12 (centres undefined),3.6&0.6,4&-9,7,7,-13,5371,0

# In the list so far, twelve have a halogen.
SMILES,RN4220 kill,ugtP null kill,Mtb hypoxia inh,Mtb hypoxia inh growth,PrP UTR inh,Bead autofluor,BJeLR viability
Clc1ccc(Cn2ncc3c(NCc4cccnc4)ncnc32)cc1,-20,-10,10,12,-10,?,15
NC(=O)C1CCN(C(=O)c2ccc(C(F)(F)F)cc2)CC1,4.6,8,.,.,4,2833,-3
COC(=O)c1ccc(NC(=O)CN2CCN(S(=O)(=O)c3ccc(Br)cc3)CC2)cc1,1.5,0,-4,6,-3,5901,6
CC(=O)Nc1ccc(NC(=O)CC(C)=NNC(=O)COc2cc(C)c(Br)cc2Br)cc1,-0.8,1,9,13,.,.,.
Clc1ccc(/C=C/c2nc(Cl)c(-c3ccc(Cl)cc3)c(Cl)n2)cc1,.,.,.,.,-13,3551,-8
Cc1ccc(C(=O)NCCc2ccc(F)cc2)s1,2.6,6,20,22,-51,3464,10
CC(Oc1ccc(C#N)cc1)C(=O)c1ccc(F)c(F)c1 (centres undefined),0.8,6,24,19,-8,4482,.
C[C@H](CO)N1C[C@H](C)[C@@H](CN(C)S(=O)(=O)c2ccc(F)cc2)Oc2c(NS(=O)(=O)c3ccc(F)cc3)cccc2C1=O,7.7,12,1,-1,-1,3840,.
O=C(/C=C/c1ccc(Cl)cc1Cl)N1CCN(c2ccccc2[N+](=O)[O-])CC1,8.1,-9,8,4,-15,9412,-1
COc1ccccc1N1CCN(Cc2nc(N)nc(Nc3ccc(C)c(Cl)c3)n2)CC1,-1.6,-20,-13,-2,-1,7231,3
COc1ccc(S(=O)(=O)Nc2ccc(NC(C)=O)cc2)cc1Br,6.3,14,7,9,-17,4055,.
O=C(Nc1ccc(O)c2c(=O)cc(-c3ccccc3Cl)oc12)c1ccc(F)cc1,8.6,1,12,4,-21,3873,-4

# From PubChem
